ugtP null kill: compounds lethal to S. aureus RN4220 ugtP deletion mutant | 330,000 tested, 0.54% active | growth inhibition, % (test concentration not listed) | OD600 growth, 16 h; some inactives read as strong as hits;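 active = z-score under -3 and OD600 up to 0.15 on both plates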;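 note: plate controls were untreated wells for no effect and antibiotic for full effect; wells of about 80 µL received 100 nL stock; the first replicate is given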
RN4220 kill: kills Staphylococcus aureus RN4220; S. aureus RN4220 growth, OD600, 16 h; inhibition, % (no concentration beside the values); 330,000 tested, 0.33% active;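 active = z-score of -3 or lower and OD600 up to 0.18 on both plates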;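 note: plate controls were untreated cells for no effect and reference antibiotic for full effect; stock transfer was 100 nL into about 80 µL; one replicate is shown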
Mtb hypoxia rep: inhibitors of hypoxia-regulated fluorescent reporter in Mycobacterium tuberculosis | M. tuberculosis hypoxia-regulated fluorescent reporter, fluorescence | fluorescence inhibition, % (concentration not given with the values) | 300,000 tested, 0.1% active;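 active = 35 to 45% if threefold the growth effect, above 45% if 1.5-fold the growth effect; inactive = the rest, general growth blockers included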;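 note: wells of about 50 µL received 100 nL stock; 0% = vehicle wells and 100% = reference inhibitor wells; whole bacteria with a GFP reporter of the hypoxia response; strong numbers were not always called active; many hits fall short of the cut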
Autofluor counter: flagged as autofluorescent in microsphere protease counterscreen; compound autofluorescence counterscreen, microsphere flow cytometry; active compounds read high; fluorescence intensity (test concentration not listed); 360,000 tested, 3.1% active; AID 624483;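 active = at least 3 SD above the mean of all compounds, about 16000 in these data; inconclusive = too few beads counted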;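 note: 100 nL of 1 mM stock went into each well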
BJeLR viability: BJeLR cell viability loss; 300,000 tested, 0.17% active; AID 1554; inhibition, % (no concentration beside the values); BJeLR (HRASV12) viability, CellTiter-Glo ATP luminescence, 48 h; reference of the scale not given here;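 active = replicate mean above 50%; inconclusive = above 50% but judged a plate artefact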;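 note: 50 nL library stock added to about 25 µL; numbers are from one replicate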
PrP UTR inh: suppresses PrP 5' UTR mRNA reporter expression; cell-based PrP 5' UTR mRNA reporter, plate reader; inhibition, % (no concentration beside the values); 340,000 tested, 0.35% active; AID 488862;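 active = every replicate at 50% or more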;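 note: 0 = median of the neutral control wells; tested in H4 reporter cells; numbers are from one replicate; inactives centre near -14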
Mtb hypoxia rep growth: recorded beside Mtb hypoxia rep, whose call it bears; growth inhibition, %; measured here: M. tuberculosis growth (absorbance);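 0% = vehicle and 100% = reference antibiotic; read after six days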
The depositor's hits bear a star; ? = inconclusive; . = no result given.

#1 CCn1c(=O)c2cc(C(=O)N(C)c3ccc(OC)cc3OC)sc2c2ccccc21
#2 O=C(CSc1ccccc1C(=O)O)c1ccc(Cl)cc1
#3 Cc1nc2ccccc2c2c1CC(C)S2 (centres undefined)
#4 Cc1cc(C(F)(F)F)nc(SCC(=O)NC2=NC(=O)C(C)S2)n1 (centres undefined)
#5 O=C(NCc1ccc2c3c(cccc13)C(=O)N2)c1cccs1
#6 CCC(C)NC(=O)c1ccc(C)c(NC(=O)C2=C(C)OCCS2)c1 (centres undefined)
#7 COc1cc(CNCc2ccccn2)ccc1OCC(=O)NC(C)(C)C
#8 O=C(/C=C/c1cccc([N+](=O)[O-])c1)NC1CC2CCC1C2 (centres undefined)
compound no. | 1 | 2 | 3 | 4 | 5 | 6 | 7 | 8
ugtP null kill | 12.6 | 11.5 | 5.9 | 4.3 | 6.6 | -4.4 | 13.5 | 9.9
RN4220 kill | -4.8 | 3.4 | 4.2 | 2.6 | 1.0 | 1.2 | 1.9 | 5.6
Mtb hypoxia rep | -0.6 | -4.9 | 17.7 | 14.0 | -0.6 | -1.7 | 1.4 | 11.7
Mtb hypoxia rep growth | 3.1 | -4.4 | 18.7 | 1.5 | 7.6 | 0.8 | 6.5 | 18.7
Autofluor counter | 3227 | 3339 | 4299 | 12754 | 5036 | 3810 | 2317 | 2044
BJeLR viability | -6.2 | 1.4 | 5.8 | -2.4 | 3.4 | -3.9 | 3.9 | 3.8
PrP UTR inh | . | -26.3 | -23.5 | -20.9 | -23.8 | -12.7 | -20.7 | -19.0

An excerpt of these results, with two lines to a compound:
Results follow in this order: ugtP null kill, RN4220 kill, Mtb hypoxia rep, Mtb hypoxia rep growth, Autofluor counter, BJeLR viability, PrP UTR inh
7. COc1cc(CNCc2ccccn2)ccc1OCC(=O)NC(C)(C)C
 : 13.5, 1.9, 1.4, 6.5, 2317, 3.9, -20.7
8. O=C(/C=C/c1cccc([N+](=O)[O-])c1)NC1CC2CCC1C2 (centres undefined)
 : 9.9, 5.6, 11.7, 18.7, 2044, 3.8, -19.0

Later entries:
#9 CC[N+]1(CC)CC2=Cc3c(ccc4ccccc34)CC2C1 (centres undefined)
#10 CC(C)(C)c1ccccc1OCCOCCSc1ncccn1
#11 Nc1nonc1-c1noc(-c2ccc(Br)o2)n1
#12 CCOC(=O)c1ccc(NC(=S)N2CCCC2c2ccc(OC)c(OC)c2)cc1 (centres undefined)
#13 Cc1occc1C(=O)Nc1c(Cl)cccc1Cl
#14 CCc1noc(C)c1C(=O)NC1CCCc2c1cnn2-c1cc(C)cc(C)c1 (centres undefined)
#15 NC(=O)c1nn(-c2ccccc2)nc1NC(=O)CSc1nnnn1-c1ccc(Cl)cc1
#16 COc1ccc2c(c1OC)C(=O)N1C2SC(C)(C)[C@H]1C(=O)NCCCOC(C)C (some centres undefined)
compound no. | 9 | 10 | 11 | 12 | 13 | 14 | 15 | 16
ugtP null kill | -2.8 | 31.4 | -6.6 | 3.2 | -0.8 | -1.3 | -12.3 | 8.1
RN4220 kill | -18.4 | 17.3 | -4.7 | 3.0 | 3.9 | 7.4 | 10.0 | 0.6
Mtb hypoxia rep | 8.2 | 4.0 | . | 15.6 | 9.9 | 10.5 | 2.0 | -2.5
Mtb hypoxia rep growth | 3.8 | 3.9 | . | -2.2 | -1.1 | 5.7 | 0.1 | 8.5
Autofluor counter | 2747 | 3261 | 4739 | 5409 | 5436 | 6175 | 7947 | 3658
BJeLR viability | 4.5 | 7.3 | 4.8 | -0.9 | 0.1 | 9.9 | 1.8 | 18.1
PrP UTR inh | -22.6 | -2.0 | -14.7 | -13.4 | -16.8 | -22.2 | -14.0 | -22.8

#17 CCc1cccc(CC)c1NC(=O)CN1C2CCCC1CC(NC(=O)Nc1cccc(OC)c1)C2 (centres undefined)
#18 Cc1ccc(C(=O)Oc2ccc(C(=O)COC(=O)c3cnccn3)cc2)cc1
#19 O=C(NCc1ccco1)c1cccc(C(F)(F)F)c1
#20 O=C(c1ccc2c(c1)OCCO2)N1CCCCC1
#21 Cc1nc2ccccc2c(=O)n1NC(=O)c1ccco1
#22 CC1CCN(C(=O)CN2C(=O)c3cccc4cccc(c34)C2=O)CC1
#23 Cc1ccc(NC(=O)CSCC(=O)NCc2cccc(C(F)(F)F)c2)cc1
#24 O=[N+]([O-])c1ccccc1-c1ccc(C(=S)N2CCCCC2)o1
compound no. | 17 | 18 | 19 | 20 | 21 | 22 | 23 | 24
ugtP null kill | 6.1 | -2.0 | -1.1 | 9.8 | 0.9 | -0.1 | 10.3 | 9.2
RN4220 kill | 2.4 | 3.3 | -2.2 | 2.5 | 0.8 | 2.4 | 1.7 | 13.3
Mtb hypoxia rep | -5.4 | 5.6 | . | . | . | 7.7 | 0.4 | 16.3
Mtb hypoxia rep growth | -3.1 | 6.7 | . | . | . | 4.3 | 3.4 | 6.0
Autofluor counter | 3262 | 16162* | 4552 | 2318 | 4791 | 4672 | ? | .
BJeLR viability | 0.3 | 6.6 | 3.2 | 5.1 | . | -3.3 | -2.3 | -6.5
PrP UTR inh | -4.0 | -26.1 | -47.1 | -12.1 | -13.3 | -5.9 | -5.1 | -50.3

#25 O=C(Nc1ccc(S(=O)(=O)N2CCCC2)cc1)C1CC(=O)N(c2ccc(F)cc2)C1 (centres undefined)
#26 O=C(Nc1nnc(-c2ccc(Cl)cc2)o1)NC1CCCCC1
#27 NS(=O)(=O)c1ccc(NN=Cc2ccc(O)cc2O)c([N+](=O)[O-])c1
#28 CCC(NC(=O)c1cc(COc2cc(C)c(Cl)c(C)c2)on1)c1ccncc1 (centres undefined)
#29 O=C(COC(=O)/C=C/c1cccs1)NC1CCCCC1
#30 CC(c1ccco1)N(C(=O)c1ccccc1NS(=O)(=O)c1ccc(Cl)c([N+](=O)[O-])c1)c1ccccn1 (centres undefined)
#31 COc1ccc(CN2CCN(S(=O)(=O)c3ccc(C)cc3)CC2)cc1Br
#32 CC(C)c1onc(C(=O)N2C(C)CCCC2C)c1[N+](=O)[O-] (centres undefined)
#33 Cn1cc([N+](=O)[O-])c(C(=O)Nc2ccc(Br)cn2)n1
compound no. | 25 | 26 | 27 | 28 | 29 | 30 | 31 | 32 | 33
ugtP null kill | 7.3 | -1.7 | 1.6 | -1.8 | 3.8 | -12.6 | 16.5 | 1.2 | 2.0
RN4220 kill | 3.4 | -0.8 | 2.6 | -5.8 | -0.1 | 1.6 | 2.5 | 6.2 | 3.7
Mtb hypoxia rep | 0.0 | . | 11.7 | 7.1 | -2.2 | -2.1 | -6.6 | 7.7 | 1.9
Mtb hypoxia rep growth | 4.1 | . | -0.8 | -1.6 | -2.1 | -4.9 | -2.0 | 8.8 | 5.5
Autofluor counter | 5598 | 5737 | . | 4366 | 5988 | 9618 | 6016 | 2510 | 10322
BJeLR viability | 3.2 | 4.1 | . | 4.2 | -0.3 | 15.6 | -10.6 | -5.2 | 2.8
PrP UTR inh | -13.6 | -31.1 | . | -3.9 | -18.6 | 1.5 | -15.4 | -14.3 | -20.9

Gathered by group: those above with a furan ring, fused or not.
#11 Nc1nonc1-c1noc(-c2ccc(Br)o2)n1
#13 Cc1occc1C(=O)Nc1c(Cl)cccc1Cl
#19 O=C(NCc1ccco1)c1cccc(C(F)(F)F)c1
#21 Cc1nc2ccccc2c(=O)n1NC(=O)c1ccco1
#24 O=[N+]([O-])c1ccccc1-c1ccc(C(=S)N2CCCCC2)o1
#30 CC(c1ccco1)N(C(=O)c1ccccc1NS(=O)(=O)c1ccc(Cl)c([N+](=O)[O-])c1)c1ccccn1 (centres undefined)
compound no. | 11 | 13 | 19 | 21 | 24 | 30
ugtP null kill | -6.6 | -0.8 | -1.1 | 0.9 | 9.2 | -12.6
RN4220 kill | -4.7 | 3.9 | -2.2 | 0.8 | 13.3 | 1.6
Mtb hypoxia rep | . | 9.9 | . | . | 16.3 | -2.1
Mtb hypoxia rep growth | . | -1.1 | . | . | 6.0 | -4.9
Autofluor counter | 4739 | 5436 | 4552 | 4791 | . | 9618
BJeLR viability | 4.8 | 0.1 | 3.2 | . | -6.5 | 15.6
PrP UTR inh | -14.7 | -16.8 | -47.1 | -13.3 | -50.3 | 1.5

Source: PubChem
